Methyltransferases: Primary Screen for Target Class Profiling of Small Molecule Inhibitors of Methyltransferases; purified enzyme, MTase-Glo SAH luminescence; active compounds read low; calls only at 40 µM; 25,000 tested, 3.9% active; AID 1745853, 2022; active = -50% or lower on at least one of six enzymes; inconclusive = the cases between; inactive = as a rule above -30% on all six;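 note: enzymes were COMT GAMT GNMT HNMT NNMT and PNMT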
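Each enzyme was reacted with SAM and its substrate, with compounds tested once at 40 uM; SAH formed was read by MTase-Glo luminescence.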
Calls only; i = inactive; ? = inconclusive; + = active, no number. % is set by controls: 0 for no effect and ±100 for the full control effect. The list is partial (hit frequency here may not be typical).

SMILES | Methyltransferases
O=S(=O)(NCCN1CCOCC1)c1ccc(Cc2ccc(S(=O)(=O)NCCN3CCOCC3)cc2)cc1 | i
COc1cccc(CCN(Cc2cccc(C)c2)C(=O)[C@H]2CCC[C@H](O)C2)c1 | i
Cc1ccc(CNC(=O)C2(C)Cn3nc(C(=O)NC4CCCCC4)cc3C(=O)N2C)cc1 (stereo not given) | i
CC(C)CC(NP(=O)(O)O[C@@H]1O[C@@H](C)[C@H](O)[C@@H](O)[C@H]1O)C(=O)NC(Cc1c[nH]c2ccccc12)C(=O)O (stereo not given in full) | i
COC(=O)c1cc2n(n1)CC(C)(C(=O)NC1CCCCCC1)N(Cc1ccccc1Cl)C2=O (stereo not given) | i
COCC1CN(Cc2ccc(Br)s2)CC12CCNCC2 (stereo not given) | i
COc1ccc(Cl)cc1NC(=O)Cn1nc2n(CCCOC(C)C)c(=O)c3ccccc3n2c1=O | i
CC1=C2C(=O)C=C(CO[C@@H]3O[C@H](CO)[C@@H](O)[C@H](O)[C@H]3O)[C@@H]2[C@H]2OC(=O)[C@H](C)[C@@H]2[C@@H](O)C1 | i
CC(C)NC(=O)CSc1nnc2n(Cc3ccccc3)c(=O)c3ccc(C(=O)NC(C)C)cc3n12 | i
Cc1ccc(CNC(=O)Cn2nc3n(CC(C)C)c(=O)c4ccccc4n3c2=O)cc1 | i
N[C@H](CCCP(=O)(O)O)C(=O)O | i
NC1(c2ccc(NC(=O)c3ccnc(-c4cc(C(=O)O)ccn4)c3)cc2)CC1 | ?
CCC(C)NC(=O)c1ccc2c(=O)n(CC(C)C)c3nn(Cc4ccccc4C)c(=O)n3c2c1 (stereo not given) | i
Cc1ccc(Cn2c(=O)c3ccc(C(=O)NC(C)C)cc3n3c(=O)n(Cc4ccccc4F)nc23)cc1 | i
Cn1cc(CCNC(=O)c2ccc3oc(-c4cccc(F)c4)nc3c2)cn1 | i
CC(C)OCCCn1c(=O)c2ccccc2n2c(CCC(=O)NC3CCN(Cc4ccccc4)CC3)nnc12 | i
CC(C)C1(O)NC(=O)C(CC2(O)c3ccccc3N3C(=O)C(C)(C)NC32)n2c1nc1ccccc1c2=O (stereo not given) | i
COCc1nc(C2CC(N)C2)cc(N(C)Cc2noc3c2CCCC3)n1 (stereo not given) | i
COc1ccccc1CNC(=O)C1c2c(n(C)c3ccccc23)SCC(=O)N1c1cccc(F)c1 (stereo not given) | i
Cc1ccc(CN2CCC(C(=O)N3CCCCCCNC(=O)CC3)CC2)s1 | i
CCn1nc(C)cc1C(=O)N1CCOC[C@H](Oc2cccnc2)C1 | i
O=C1CO[C@H]2CN(Cc3ncc[nH]3)C[C@H]2N1Cc1ccc(F)cc1 | i
COc1ccc(NC(=O)c2nc3sccn3c2-c2cccc(OC)c2)cc1 | i
Cn1cnc(S(=O)(=O)N2c3ccccc3CC2c2noc(C3CCOCC3)n2)c1 (stereo not given) | i
CCc1ccc(-c2cc3n(n2)CC(C)(C(=O)NC2CCCCCC2)N(CC)C3=O)cc1 (stereo not given) | i
CCC(C)NC(=O)c1ccc2c(=O)n(CC(C)C)c3nn(Cc4ccccc4F)c(=O)n3c2c1 (stereo not given) | i
CC(=O)Nc1ccc(Cl)c(C(=O)N(C)Cc2sccc2C)c1 | i
CC1(C(=O)NC2CCCCCCC2)Cn2c(cc3ccccc32)C(=O)N1CCN1CCOCC1 (stereo not given) | i
CC(C)c1ccc(S(=O)(=O)c2nnn3c2nc(N2CCOCC2)c2ccccc23)cc1 | i
COc1cccc(NS(=O)(=O)c2cc3[nH]c(=O)[nH]c3cc2C)c1 | i
COc1ccc(-c2nnc3n(Cc4ccccc4)c(=O)c4ccccc4n23)c(O)c1 | i
O=C(CCCc1nnc2n3nc(-c4ccccc4)nc3c3ccccc3n12)NCc1ccc(Cl)cc1 | i
C=C1C(=O)OC2/C=C(\C)CC/C=C(\C)CC(OC(C)=O)C12 (stereo not given) | i
COC[C@H]1NC(=O)CC[C@H]1C(=O)O | i
CCCN1C(=O)c2c(C(=O)NCc3ccc(F)cc3)ncn2CC1(C)C(=O)NCc1ccc(F)cc1 (stereo not given) | i
Cc1ccc(OCC(=O)N2CCCC(CN3CCCC3)CC2)cc1 (stereo not given) | i
CCC(C)NC(=O)c1ccc2c(=O)n(C)c3nn(CC(=O)c4cc(C)ccc4C)c(=O)n3c2c1 (stereo not given) | i
CC(C)Cn1c(=O)c2ccc(Cl)cc2n2c(SCC(=O)Nc3ccc(F)cc3)nnc12 | i
CCn1cc(C2=NOC(C(=O)Nc3c(C)n(C)n(-c4ccccc4)c3=O)C2)c(C)n1 (stereo not given) | i
CC(=O)OC/C(=C/C(=O)O)CC[C@@H]1C(C)=CC(=O)[C@@H]2C(C)(C)CCC[C@@]12C | +
COc1ccc2[nH]cc(C(=O)Cn3nc4n(Cc5ccc(F)cc5)c(=O)c5ccccc5n4c3=O)c2c1 | i
CCC(C)NC(=O)c1ccc2c(=O)n(Cc3ccccc3)c3nn(Cc4ccccc4F)c(=O)n3c2c1 (stereo not given) | i
COc1c2c(c(C)c3c1C(=O)OC3)OC1(C)CC(O)C(C(C)(C)O)C(C)(CCC(=O)O)C1C2 (stereo not given) | i
COc1ccc(NC(=O)C2CCCN(c3cnn(Cc4ccccc4)c(=O)c3)C2)cc1OC (stereo not given) | i
O=C1NC(=NC2CCCC2)C2(CCN([S+](=O)([O-])c3cccc(C(F)(F)F)c3)C2)N1c1cccnc1 (stereo not given) | i
CCCNC(=O)N1Cc2c(sc3c2CCCC3)-n2cccc2C1c1ccc(OCC)cc1 (stereo not given) | i
CCOc1cccc(NC(=O)c2ccc(N3CCCC3)c(C(F)(F)F)c2)c1 | i
CC(C)c1ccc(C(O)Cn2ccn3nc(-c4ccc(F)cc4)cc3c2=O)cc1 (stereo not given) | i
COc1ccccc1CNC(=O)C1c2c(n(C)c3ccccc23)SCC(=O)N1c1ccc(C(C)C)cc1 (stereo not given) | i
Cc1ccc(Cl)cc1N1CCN(S(=O)(=O)c2ccc3c(c2)n(C)c(=O)n3C)CC1 | i
O=C(NCC1(Cn2cccn2)CC1)c1ccc(C2CCNC2)cc1 (stereo not given) | i
CC1CCN(S(=O)(=O)c2ccc3c(ccn3CC(=O)NCc3ccccc3Cl)c2)CC1 | i
Cc1nc(CN2CCOc3cc([S+](=O)([O-])N(C)C)ccc3C2)cs1 | i
Cc1nc([C@@H]2CN(S(=O)(=O)c3ccc4c(c3)CCCC4)C[C@H]2C(N)=O)n[nH]1 | i
CCOc1ccc(CN2C(=O)c3cc4ccccc4n3CC2(C)C(=O)NCCC(C)C)cc1 (stereo not given) | i
COC(=O)c1cc2n(n1)CC(C)(C(=O)NC1CCCC1)N(Cc1ccc(OC)cc1OC)C2=O (stereo not given) | i
O=C(c1cccnc1)N1CC[C@H](c2nc3ccccc3o2)C1 | i
CCOc1ccc(CCNC(=O)c2cc3n(n2)CC(C)(C(=O)NCc2ccc(F)cc2)N(C)C3=O)cc1 (stereo not given) | i
CC(C)CCN1C(=O)c2cc3occc3n2CC1(C)C(=O)NC1CCC(C)CC1 (stereo not given) | i
CC(C)N1CCN(C(=O)CC2=C3CCCCC3NC2=O)CC1 (stereo not given) | i
Carrying on.
SMILES | Methyltransferases
CC1CCCC(C)N1C(=O)c1ccc2nc(-c3cccnc3)oc2c1 (stereo not given) | i
O=C(CC1C(=O)NCCN1Cc1cccc(Oc2ccccc2)c1)NCc1ccoc1 (stereo not given) | ?
COc1ccc(C(=O)Cn2nc3n(CC(C)C)c(=O)c4ccccc4n3c2=O)cc1 | i
O=C(O)c1cc2cc(F)ccc2[nH]1 | i
COc1ccc(CN2C(=Nc3ccc(Cl)cc3)S[C@H]3[C@@H]2[C@@H](O)[C@H](O)C[C@@H]3C(N)=O)cc1 | i
O=C(Cn1nc2n(CCc3ccccc3)c(=O)c3ccccc3n2c1=O)NC1CCCCC1 | i
CN1CCN(C2=Nc3ccccc3Nc3ccc(OS(=O)(=O)C(F)(F)F)cc32)CC1 | i
O=C(OC1C=C(CO)C2C(OC3OC(CO)C(O)C(O)C3O)OC=CC12)c1ccc(O)cc1 (stereo not given) | i
CCN1CCC(n2cc(CNc3cc(Cl)c4ncc(C#N)c(Nc5ccc(F)c(Cl)c5)c4c3)nn2)CC1 | +
OC1(CN2CCN(CCc3ccccn3)CC2)CCCNC1 (stereo not given) | i
Fc1ccc(-c2cccc(CN3CC4CCC(C3)N4c3ccc(C(F)(F)F)cc3)c2)c(F)c1 | i
C=C(C)n1c(=O)n(Cc2ccccc2C)c2ccccc21 | i
CCOC(=O)c1cc2n(n1)CC(C)(C(=O)NCc1ccc(F)cc1)N(Cc1ccccc1OCC)C2=O (stereo not given) | i
CC(=O)OCCC(C)CCC1C(C)(O)CCC2C(C)(C)CCCC21C (stereo not given) | i
CC1(C(=O)NC2CCCCC2)Cn2c(cc3occc32)C(=O)N1C1CCCCCC1 (stereo not given) | i

Some of the entries so far, as labelled records:
CCN1CCC(n2cc(CNc3cc(Cl)c4ncc(C#N)c(Nc5ccc(F)c(Cl)c5)c4c3)nn2)CC1
  Methyltransferases: +

CN1CCN(C2=Nc3ccccc3Nc3ccc(OS(=O)(=O)C(F)(F)F)cc32)CC1
  Methyltransferases: i

CC(=O)OCCC(C)CCC1C(C)(O)CCC2C(C)(C)CCCC21C (stereo not given)
  Methyltransferases: i

(list continues)
SMILES | Methyltransferases
Cc1cc(C)cc(N2C(=O)c3ccccc3CC2(C)C(=O)NCc2ccccc2)c1 (stereo not given) | i
C[C@@H]1CN(C(=O)c2ccc3c(c2)N(C)C(=O)CO3)C[C@@]1(O)C1CCC1 | i
CCOC(=O)c1cccc(NC(=O)Cn2c(=O)oc3cc(S(=O)(=O)N4CCCC4)ccc32)c1 | i
CC(C)c1ccc(NC(=O)c2cc3n(n2)CC(C)(C(=O)NC2CCCCC2)N(C)C3=O)cc1 (stereo not given) | i
CC(C)(C)n1nc(-c2cccc3ccccc23)c2c(N)ncnc21 | ?
C=CCNc1ncnc2ccc(Br)cc12 | ?
CCCN1C(=O)c2c(C(=O)NCc3cccc(Cl)c3)ncn2CC1(C)C(=O)NC1CCCC1 (stereo not given) | i
Cc1ccc([S+](=O)([O-])N2CCCC(N3C(=O)c4c(c(C)nn4-c4ccccc4)C3C)C2)cc1 (stereo not given) | i
Cn1c2c(c3ccccc31)C(C(=O)NCc1ccc(F)cc1)N(c1ccc3c(c1)OCO3)C(=O)CS2 (stereo not given) | i
Cc1ccccc1NC(=O)CSc1nnc2n(CCC(C)C)c(=O)c3ccccc3n12 | i
CC(=O)N1CCOc2ccc(CCC(=O)N3CCN(C4CCCCC4)CC3)cc2C1 | i
CCCn1c(=O)c2ccccc2n2c(SCc3ccc(F)cc3)nnc12 | i
CC1(C(=O)NC2CCCC2)Cn2c(cc3sccc32)C(=O)N1CCc1ccccc1 (stereo not given) | i
CCCC(=O)NCCc1c2n(c3ccc(OC)cc13)CCCc1ccccc1-2 | +
C=C1CC2C3(C)C=CC(=O)OC(C)(C)C3CC(OC(C)=O)C2(C)C2C(=O)OC(C)C(=O)C12C (stereo not given) | i

The final six entries of the part before open the next one:
SMILES | Methyltransferases
Cc1ccccc1NC(=O)CSc1nnc2n(CCC(C)C)c(=O)c3ccccc3n12 | i
CC(=O)N1CCOc2ccc(CCC(=O)N3CCN(C4CCCCC4)CC3)cc2C1 | i
CCCn1c(=O)c2ccccc2n2c(SCc3ccc(F)cc3)nnc12 | i
CC1(C(=O)NC2CCCC2)Cn2c(cc3sccc32)C(=O)N1CCc1ccccc1 (stereo not given) | i
CCCC(=O)NCCc1c2n(c3ccc(OC)cc13)CCCc1ccccc1-2 | +
C=C1CC2C3(C)C=CC(=O)OC(C)(C)C3CC(OC(C)=O)C2(C)C2C(=O)OC(C)C(=O)C12C (stereo not given) | i
COc1cccc(CN2C[C@@H](CO)[C@H](NC(=O)C3CC3)C2)n1 | i
C[C@@H]1O[C@@H](OC[C@H]2O[C@@H](OCCc3ccccc3)[C@H](O)[C@@H](O)[C@@H]2O)[C@H](O)[C@H](O)[C@H]1O | i
Cc1cc2c(cc3n2CC(C)(C(=O)NC2CCCCCC2)N(Cc2ccccc2F)C3=O)o1 (stereo not given) | i
O=C(O)[C@H](CC(=O)N1C[C@H]2CCCC[C@H]2C1)Cc1ccccc1 | i
CCOC(=O)c1cc2n(n1)CC(C)(C(=O)NCCCOC(C)C)N(c1cccc(CC)c1)C2=O (stereo not given) | i
CC1(C(=O)NC2CCCCC2)Cn2c(cc3occc32)C(=O)N1Cc1cccc(Cl)c1 (stereo not given) | i
CC1(C(=O)NCc2ccccc2Cl)Cn2cnc(C(=O)NCc3ccccc3)c2C(=O)N1C1CC1 (stereo not given) | i
O=C(NC1CCCC1)c1cc(-c2cccc(C(F)(F)F)c2)c2cccn2n1 | i
CSc1ccc(CCN2C(=O)c3cc4ccccc4n3CC2(C)C(=O)NCc2ccccc2)cc1 (stereo not given) | i
COc1cccc(C(=O)Cn2nc3n(C)c(=O)c4ccc(C(=O)NC5CCCC5)cc4n3c2=O)c1 | i
O=c1c2nc(Nc3ccc(C(F)(F)F)cc3)ccc2ncn1Cc1ccccn1 | i
Cc1ccc(Nc2nc(C)cc3nn(CC(=O)Nc4ccc5c(c4)OCCO5)c(=O)n23)cc1 | i
CN1C[C@H](NCc2nccn2C)CCC[C@@H](C(=O)NC2CCOCC2)CC1=O | i
COc1ccc2cc3n(c2c1)CC(C)(C(=O)NCC1CCCO1)N(Cc1ccc(Cl)cc1)C3=O (stereo not given) | i
CCCn1c(=O)c2ccc(C(=O)NC3CCCC3)cc2n2c(=O)n(CC(=O)NC3CCCC3)nc12 | i

Screening results (PubChem BioAssay)
